PINK1 modulator: PINK1 expression modulation; PINK1 immunofluorescence, high-content cytometry, 24 h; Potency, µM (top dose mostly 76.6 µM), inactives show at the highest dose activation (PINK1 increase), actives largely listed as activators; 410,000 compounds, 0.2% hits; AID 624263; active = well fitted activation curve with a large enough effect; inconclusive = small, poorly fitted or top-dose-only effect; inactive = flat fitted curve, though single readings scatter; cell line not stated here;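 note: potency is the fitted concentration of half-maximal effect; % of control where 0% means no effect; nearly all actives have a fitted effect of over 65% in size; a mitochondrial uncoupler was the plate control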
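Stable cell line, 250 cells/well, 12 h attachment; compounds pinned at 5 concentrations, 24 h; CCCP control. Fixed with nuclear dye, primary antibodies 12 h at 10 degrees C, secondary plus cell stain; laser-scanning cytometer read.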
TRPV1 potentiator: enhances activation of the human vanilloid receptor TRPV1 | Q8NER1 | TRPV1-expressing cells, Fluo-8 calcium influx, capsaicin EC20 potentiation; host cell line not named in the record; control for the full effect not named in the record | potentiation, % at 8.33 µM | 320,000 compounds, 0.02% hits | AID 540277; active means potentiation above 80%; inconclusive means 30% to 80%; inactive means below 30%; note: 0% is about no effect
Target sequence (Q8NER1 whole entry, looked up): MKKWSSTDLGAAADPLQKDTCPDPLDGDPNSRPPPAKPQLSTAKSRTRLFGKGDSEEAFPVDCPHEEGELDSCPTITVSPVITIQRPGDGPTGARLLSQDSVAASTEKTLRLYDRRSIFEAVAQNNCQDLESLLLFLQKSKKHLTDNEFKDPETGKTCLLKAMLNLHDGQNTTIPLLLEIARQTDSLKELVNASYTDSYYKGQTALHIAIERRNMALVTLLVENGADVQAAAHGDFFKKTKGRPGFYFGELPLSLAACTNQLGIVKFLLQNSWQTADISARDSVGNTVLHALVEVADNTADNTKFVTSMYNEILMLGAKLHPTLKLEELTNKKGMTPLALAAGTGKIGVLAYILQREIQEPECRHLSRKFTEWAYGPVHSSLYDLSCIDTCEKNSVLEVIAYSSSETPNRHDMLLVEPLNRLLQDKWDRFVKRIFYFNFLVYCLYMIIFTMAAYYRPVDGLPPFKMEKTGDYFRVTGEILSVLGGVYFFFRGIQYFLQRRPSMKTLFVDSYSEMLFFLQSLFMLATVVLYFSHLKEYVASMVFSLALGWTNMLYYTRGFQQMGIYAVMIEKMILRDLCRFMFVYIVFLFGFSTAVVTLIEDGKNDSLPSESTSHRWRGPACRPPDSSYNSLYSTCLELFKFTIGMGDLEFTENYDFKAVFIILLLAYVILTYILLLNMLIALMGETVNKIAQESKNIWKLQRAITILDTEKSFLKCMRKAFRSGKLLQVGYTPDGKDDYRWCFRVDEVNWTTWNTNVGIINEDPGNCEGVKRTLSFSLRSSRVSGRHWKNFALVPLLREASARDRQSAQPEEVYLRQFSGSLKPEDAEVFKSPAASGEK
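Cells expressing TRPV1 were dye-loaded with Fluo-8 and read kinetically: 10 s baseline, 3 min after compound (agonist portion), then 2 min after EC20 capsaicin (allosteric enhancer portion). Calcium-bound dye fluorescence at 480/520 nm.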
ClpP mod: qHTS Assay for Activators of ClpP; purified B. subtilis ClpP, FRET peptide cleavage, 20 min; Potency, µM (series often up to 57.5 µM), for the others: at the top dose activity change, negative = active; 340,000 compounds, 1.9% hits; AID 651965, 2013; active = well fitted falling curve with a large enough effect; inconclusive = small, poorly fitted or top-dose-only effect; inactive = no such curve, though single readings can be large or run the other way; note: potency is the fitted concentration of half-maximal effect; the source files actives as falling curves though it sought activators and does not explain the sign; nearly all actives have a fitted effect of over 65% in size; many hits overshoot -100%
Target sequence (P80244 whole entry, looked up): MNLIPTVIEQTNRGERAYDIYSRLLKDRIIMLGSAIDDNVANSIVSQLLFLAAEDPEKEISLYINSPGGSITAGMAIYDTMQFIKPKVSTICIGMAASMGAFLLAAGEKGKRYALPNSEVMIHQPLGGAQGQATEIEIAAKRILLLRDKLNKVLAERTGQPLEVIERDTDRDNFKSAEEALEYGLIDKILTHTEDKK
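Buffer: 100 mM Tris/HCl pH8, 100 mM KCl, 0.05% low protease BSA, 2.5% glycerol, 0.01% Tween-20. ClpP 10 microg/mL final; 20 min RT; delta FRET normalized to ADEP and DMSO controls.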
Menin MLL FP FL: inhibitors of human menin-MLL interaction, wild-type MLL peptide; Fluorescence polarization, fluorescein-MLL peptide displacement from menin; FP activity change, % at 61.4 µM; 290,000 tested, under 10 active; AID 1766; inconclusive = falling polarisation curve, or a change in total fluorescence; inactive = total fluorescence flat and polarisation flat or rising; no compound was filed as active; the % refers to the polarisation; negative = inhibition;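 note: % of control where 0% means no effect; inhibitors lower the polarisation; unlabelled MLL peptide was the positive control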
TRPML1 inh: inhibitors of human TRPML1 channel; 390,000 compounds, 0.02% hits; TRPML1-inducible cells, Ca2+ dye fluorescence, FDSS; hits give low values; inhibition of EC80 agonist-evoked calcium signal; activity change, negative = inhibition, % (no concentration beside the values); in the data active means activity change below about -50%; inconclusive means about -30% to -50%; inactive means above about -30%;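 note: stimulus is agonist 54-4 at its EC80 concentration; % is set by controls: 0 for no effect and ±100 for the full control effect; compound concentration not given in the record; the text of the record puts the active cut at -80%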
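Calcium fluorescence in TRPML1-DL cells induced overnight with Tet: a 110 s read after compound pin addition, then a 110 s antagonist read after challenge with 54-4 at 4 uM final (EC80).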
Sfp PPTase inh: blocks B. subtilis Sfp PPTase activity. Q9F4F7. Biochemical Sfp PPTase activity, qHTS. Potency, µM, without a hit: max response, negative = inhibition, hits mostly inhibitors. 310,000 compounds, 3.5% hits; active = well fitted inhibition curve with a large enough effect; inconclusive = small, poorly fitted or top-dose-only effect, or another doubt; inactive = no such curve, though single readings can be large or run the other way;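 note: the enzyme is Sfp with the accession as filed and its product quenches rhodamine fluorescence; potency is the fitted concentration of half-maximal effect; 0% = enzyme reaction without inhibitor and -100% = no enzyme wells; top concentration of the series not given in the record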
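Fluorescence-quenching assay: 15 nM Sfp-PPTase preincubated 15 min at room temperature with compound, then 5 uM rhodamine-CoA and 12.5 uM BHQ-2-labelled YbbR peptide added. Fluorescence (ex 525/em 598 nm) read at start and after 30 min; difference gives rate.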
TRPML1 ag: activates the human TRPML1 channel; Q9GZU1; TRPML1-expressing cells, Ca2+ dye fluorescence, FDSS; host cell line not named in the record; reference of the full effect not given here; activation, % (test concentration not listed); 410,000 compounds, 0.12% hits; in the data active = activation above about 50%; inconclusive = about 30% to 50%; inactive = below about 30%; note: 0% is about no effect; the text of the record puts the active cut at 80%
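Kinetic FDSS Ca2+ read in Tet-induced TRPML1-DL cells (ABD Ca8 dye plus quencher, 45-90 min RT loading): baseline, then compound, then 110 s agonist window; EC80 agonist 54-4 at 4uM final added afterwards for a 110 s antagonist window.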
The depositor's hits bear a star; [ ] = dose if it differs, or a comment.

How did CC(=O)N(C)C[C@@H]1Oc2ncc(C#Cc3ccc(F)cc3)cc2C(=O)N([C@@H](C)CO)C[C@H]1C do in these assays?
PINK1 modulator: 1.3%; ClpP mod: -6.7%; TRPML1 inh: -2; TRPML1 ag: -0.4

Results for Cc1ccc(C)c(S(=O)(=O)NCC(=O)Nc2ccc3c(c2)OCO3)c1 ?
PINK1 modulator: 1.4%; TRPV1 potentiator: 2; ClpP mod: -1.7%; TRPML1 inh: -2; Sfp PPTase inh: 1%; TRPML1 ag: 0.8

Results for CN(CC(=O)NCc1cccnc1)S(=O)(=O)c1cc(Cl)ccc1Cl ?
PINK1 modulator: 4.4%; TRPV1 potentiator: -25; ClpP mod: 1.0%; TRPML1 inh: -11; TRPML1 ag: 0.0

How did CCN(CC)CCCNC(=S)N(CCO)Cc1cc2cc3c(cc2[nH]c1=O)OCO3 do in these assays?
PINK1 modulator: 0.8%; TRPV1 potentiator: -9; ClpP mod: 4.2%; Menin MLL FP FL: 1.0; TRPML1 inh: -6; Sfp PPTase inh: 20%; TRPML1 ag: 0.4

Results for Cc1nc(-c2ccccn2)nc(SCC(=O)c2ccc(F)cc2)c1Cl ?
PINK1 modulator: -2.3%; TRPV1 potentiator: 2; ClpP mod: 0.0%; Menin MLL FP FL: 4.1; TRPML1 inh: 15; Sfp PPTase inh: -12%; TRPML1 ag: 2.6

What do the screens show for `COc1ccc(CSc2ncnc3sccc23)cc1F`?
PINK1 modulator: 0.2%; TRPV1 potentiator: -6; ClpP mod: -1.4%; Menin MLL FP FL: 1.6; TRPML1 inh: -3; Sfp PPTase inh: -18%; TRPML1 ag: 0.1

How did Cc1ccc(N2CC(C(=O)Nc3nnc(SCC(=O)Nc4nc(C)cs4)s3)CC2=O)cc1 (stereo not drawn) do in these assays?
PINK1 modulator: 13%; TRPV1 potentiator: 9; ClpP mod: -0.5%; Menin MLL FP FL: 7.0; TRPML1 inh: -14; Sfp PPTase inh: -8%; TRPML1 ag: -0.7

How did CC(C)(C)n1nnnc1C(c1cccc(C#N)c1)N1CCC(Cc2ccccc2)CC1 (stereo not drawn) do in these assays?
PINK1 modulator: 7.1%[38.3 µM]; TRPV1 potentiator: 4; ClpP mod: -1.3%; Menin MLL FP FL: inconclusive; TRPML1 inh: 22; Sfp PPTase inh: 8%; TRPML1 ag: 0.9

How did Cn1nnnc1SCCCNCc1ccccc1OCc1ccc(F)cc1 do in these assays?
PINK1 modulator: -0.4%; ClpP mod: -0.5%; TRPML1 inh: -23; TRPML1 ag: -1.0

What do the screens show for `Cc1cc(C(=O)N/N=C/c2cccc([N+](=O)[O-])c2O)n[nH]1`?
PINK1 modulator: 0.6%; TRPV1 potentiator: 26; ClpP mod: 1.4%; Menin MLL FP FL: 0.6; TRPML1 inh: 12; Sfp PPTase inh: 12%; TRPML1 ag: 0.1

Reprinted from the part before: 2 compounds, then new ones.
How did Cn1nnnc1SCCCNCc1ccccc1OCc1ccc(F)cc1 do in these assays?
PINK1 modulator: -0.4%; ClpP mod: -0.5%; TRPML1 inh: -23; TRPML1 ag: -1.0

What do the screens show for `Cc1cc(C(=O)N/N=C/c2cccc([N+](=O)[O-])c2O)n[nH]1`?
PINK1 modulator: 0.6%; TRPV1 potentiator: 26; ClpP mod: 1.4%; Menin MLL FP FL: 0.6; TRPML1 inh: 12; Sfp PPTase inh: 12%; TRPML1 ag: 0.1

How did COC(=O)[C@H]1[C@H](C(=O)OC)[C@@H](C(=O)OC)N(c2ccc(OC)cc2)[C@@H]1C(=O)OC do in these assays?
PINK1 modulator: 0.9%; TRPV1 potentiator: 6; ClpP mod: -12%; Menin MLL FP FL: -1.9; TRPML1 inh: 6; Sfp PPTase inh: 6%; TRPML1 ag: 0.2

Results for O=C(NC1CCCC1)c1ccc(Cl)s1 ?
PINK1 modulator: -1.0%; TRPV1 potentiator: -25; ClpP mod: -1.6%; TRPML1 inh: 2; Sfp PPTase inh: 4%; TRPML1 ag: -0.1

Results for COc1ccc(N2CCN(C3CCCN(C(=O)CN4CCOC4=O)C3)CC2)cc1 (stereo not drawn) ?
PINK1 modulator: 3.0%; TRPV1 potentiator: 10; ClpP mod: -6.3%; TRPML1 inh: -9; Sfp PPTase inh: 16%; TRPML1 ag: 0.0

How did Clc1ccc(OCCOCCOc2cccc3cccnc23)c(Br)c1 do in these assays?
PINK1 modulator: -2.9%; TRPV1 potentiator: 1; ClpP mod: -14%; Menin MLL FP FL: 6.6; TRPML1 inh: -13; Sfp PPTase inh: -28%; TRPML1 ag: 5.0

Results for Cc1ccc(S(=O)(=O)c2nc(-c3ccc(F)cc3)oc2N2CCOCC2)cc1 ?
PINK1 modulator: 2.2%; TRPV1 potentiator: 15; Menin MLL FP FL: 11; TRPML1 inh: 2; Sfp PPTase inh: -10%; TRPML1 ag: 0.6

Results for CCn1c(SCC(=O)NNC(=O)Cc2ccccc2)nnc1-c1ccncc1 ?
PINK1 modulator: 5.7%; TRPV1 potentiator: -3; Menin MLL FP FL: 0.5; TRPML1 inh: -15; Sfp PPTase inh: inconclusive; TRPML1 ag: -0.4

How did CCOC(=O)c1ccc(S(=O)(=O)n2c(=O)oc3ccccc32)cc1 do in these assays?
PINK1 modulator: 0.9%; TRPV1 potentiator: -24; ClpP mod: -2.7%; TRPML1 inh: 30; TRPML1 ag: 0.7

What do the screens show for `Cc1ccc(NC(=O)CNC(=O)OCc2ccccc2)cc1C`?
PINK1 modulator: 4.1%; TRPV1 potentiator: -18; ClpP mod: -2.5%; Menin MLL FP FL: -2.0; TRPML1 inh: -3; Sfp PPTase inh: 1%; TRPML1 ag: 0.9

How did CCC1Nc2ncnc(N3CCOCC3)c2N(Cc2ccccc2)C1=O (stereo not drawn) do in these assays?
PINK1 modulator: 0.3%; TRPV1 potentiator: 3; ClpP mod: -2.1%; TRPML1 inh: 2; TRPML1 ag: -1.0

Results for CCc1ccc(NC(=O)CSc2nc3n[nH]c(C)c3c(=N)n2-c2ccccc2C)cc1 ?
PINK1 modulator: -0.9%; ClpP mod: -19%; TRPML1 inh: 25; TRPML1 ag: 0.8

Results for CC1CCN(c2c(NCC3CCC(C(=O)N4CCCC(C)C4)CC3)c(=O)c2=O)CC1 (stereo not drawn) ?
PINK1 modulator: -0.7%; TRPV1 potentiator: -3; ClpP mod: 0.1%; Menin MLL FP FL: 0.6; TRPML1 inh: 7; Sfp PPTase inh: 6%; TRPML1 ag: -0.9

Results for COc1ccc(NC(=O)c2nc(S(=O)(=O)Cc3ccc(C)cc3)ncc2Cl)cc1 ?
PINK1 modulator: 7.8%; ClpP mod: 2.5%; TRPML1 inh: -9; TRPML1 ag: 0.1

How did COc1ccccc1CNC(=O)CC(NS(=O)(=O)c1ccc(C)cc1)c1ccco1 (stereo not drawn) do in these assays?
PINK1 modulator: -0.5%; TRPV1 potentiator: 15; ClpP mod: 0.9%; Menin MLL FP FL: -1.0; TRPML1 inh: 14; Sfp PPTase inh: 3%; TRPML1 ag: 1.8

What do the screens show for `Cc1ccc(NCC(O)Cn2cnc3c2c(=O)n(C)c(=O)n3C)cc1` (stereo not drawn)?
PINK1 modulator: -0.5%; TRPV1 potentiator: 2; ClpP mod: 28µM*; Menin MLL FP FL: 3.2; TRPML1 inh: -14; Sfp PPTase inh: 8%; TRPML1 ag: 0.0

Results for CCc1nnc(NC(=O)CSc2nnc(C(C)NC(=O)c3ccccc3)n2C)s1 (stereo not drawn) ?
PINK1 modulator: 2.0%; TRPV1 potentiator: 5; Menin MLL FP FL: 2.8; TRPML1 inh: 8; Sfp PPTase inh: -6%; TRPML1 ag: -0.1

What do the screens show for `COc1ccc(S(=O)(=O)N2CCc3ccccc32)cc1C(=O)N1CCN(C=O)CC1`?
PINK1 modulator: 1.6%; TRPV1 potentiator: 3; ClpP mod: -4.8%; TRPML1 inh: -12; TRPML1 ag: 1.3

Results for CC(=O)NC(=O)NC1CSCC1OC(C)=O (stereo not drawn) ?
PINK1 modulator: 32%[38.3 µM]; TRPV1 potentiator: -3; ClpP mod: 1.6%; Menin MLL FP FL: 4.5; TRPML1 inh: 8; Sfp PPTase inh: 5%; TRPML1 ag: -0.5

How did CC(C)(C)NC(=O)NC(=O)COc1ccccn1 do in these assays?
PINK1 modulator: -1.5%; TRPV1 potentiator: 3; ClpP mod: -0.6%; Menin MLL FP FL: 1.7; TRPML1 inh: 10; Sfp PPTase inh: -1%; TRPML1 ag: 0.1

How did O=C(OC1CCOC1=O)c1ccccc1C(=O)c1ccc(Cl)c([N+](=O)[O-])c1 (stereo not drawn) do in these assays?
PINK1 modulator: 0.3%; TRPV1 potentiator: 0; ClpP mod: -3.2%; TRPML1 inh: 23; TRPML1 ag: 0.7

What do the screens show for `COCc1cc(N2CCCCC2)nc(-c2ccccc2)n1`?
PINK1 modulator: 3.4%; TRPV1 potentiator: -16; Menin MLL FP FL: -3.0; TRPML1 inh: -3; Sfp PPTase inh: 0%; TRPML1 ag: 2.8

What do the screens show for `O=C1SCCC1NS(=O)(=O)c1ccc([N+](=O)[O-])cc1` (stereo not drawn)?
PINK1 modulator: 4.2%; TRPV1 potentiator: -1; Menin MLL FP FL: 2.3; TRPML1 inh: -17; Sfp PPTase inh: 14%; TRPML1 ag: 0.2

What do the screens show for `Cc1ccc(OC(=O)c2cc(-c3ccc(Cl)cc3)on2)c(C)c1`?
PINK1 modulator: -0.9%; ClpP mod: -0.4%; TRPML1 inh: 4; TRPML1 ag: -0.1

Results for COc1ccc(NC(=O)C2CCCN2S(=O)(=O)c2ccc3c(c2)CCC(=O)N3)cc1 (stereo not drawn) ?
PINK1 modulator: -0.3%; TRPV1 potentiator: 11; ClpP mod: -1.0%; Menin MLL FP FL: 0.4; TRPML1 inh: 11; Sfp PPTase inh: 14%; TRPML1 ag: 0.4

Results for Cc1ccc(CN2CCCn3nc(C(=O)NCCc4ccc(Cl)cc4)cc3C2=O)cc1 ?
PINK1 modulator: -1.5%; ClpP mod: -2.7%; TRPML1 inh: 9; TRPML1 ag: 0.8

Results for COc1cc(SC)ccc1C(=O)OCC(=O)NCC(C)C ?
PINK1 modulator: 5.4%; TRPV1 potentiator: 4; ClpP mod: 40µM*; Menin MLL FP FL: -0.2; TRPML1 inh: 10; Sfp PPTase inh: 8%; TRPML1 ag: -1.0

Results for CCCNC(=O)C1(C)CCN(C(=O)c2ccc(OC)cc2OC)C1 (stereo not drawn) ?
PINK1 modulator: 0.9%; ClpP mod: -0.6%; TRPML1 ag: -0.6

The order is random; any-hit rate near 4.4%.
